VDR inh: vitamin D3 receptor (human) inhibition | P11473 | VDR-SRC2-3 peptide fluorescence polarization, 2 h | Potency, µM, for inactives: max response, negative = inhibition, most hits filed as inhibitors | actives 0.93% (n = 400,000); active = well fitted inhibition curve with a large enough effect; inconclusive = small, poorly fitted or top-dose-only effect, or another doubt; inactive = no such curve, though single readings can be large or run the other way; also: series mostly up to about 120 µM
Target sequence (P11473 whole entry, looked up): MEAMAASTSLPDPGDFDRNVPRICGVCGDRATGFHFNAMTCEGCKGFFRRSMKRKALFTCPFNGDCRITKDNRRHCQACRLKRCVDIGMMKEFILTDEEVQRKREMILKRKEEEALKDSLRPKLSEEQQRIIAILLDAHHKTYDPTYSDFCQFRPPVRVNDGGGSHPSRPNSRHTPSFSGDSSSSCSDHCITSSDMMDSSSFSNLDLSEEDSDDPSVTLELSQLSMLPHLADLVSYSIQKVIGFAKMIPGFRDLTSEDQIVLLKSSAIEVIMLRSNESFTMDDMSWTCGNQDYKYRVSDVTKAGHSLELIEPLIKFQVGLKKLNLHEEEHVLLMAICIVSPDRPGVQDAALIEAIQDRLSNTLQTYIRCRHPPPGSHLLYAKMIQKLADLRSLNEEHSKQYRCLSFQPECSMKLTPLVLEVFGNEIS
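Fluorescence polarization assay of small-molecule disruption of VDR binding to coregulator peptide SRC2-3. Compounds and controls pin-transferred, then read after 2 h incubation at ambient room temperature.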
Starred values were filed as active, the others as inactive; ? = inconclusive; & = joins results of further samples. % is scaled to controls: 0 for no effect and ±100 for the full control effect; potency is read from the fitted curve at half-maximal effect. An excerpt; rates above refer to the full screens.

SMILES | VDR inh
CCC(C)(C)n1nnnc1C(C(C)C)N1CCC(C(N)=O)CC1 (stereo not drawn) | 11%
COc1ccc(-c2nc(N)n(C(=O)c3ccccc3Cl)n2)cc1 | -12%
CCOc1ccc(NC(=O)c2ccccc2NC(=O)c2cccnc2)cc1 | 1%
CC(=O)c1c[nH]c2ccc(C)cc2c1=O | -4%
Cc1ccc(-n2c(C(C)n3nc(C)c([N+](=O)[O-])c3C)n[nH]c2=S)cc1 (stereo not drawn) | 6%
O=C(NCC(c1ccco1)N1CCc2ccccc2C1)c1ccc(Cl)cc1 (stereo not drawn) | 11%
CCc1nnc(NC(=O)CSc2nnc(Cc3cc(=O)[nH]c(=O)[nH]3)n2-c2ccc(OC)cc2)s1 | -10%
CCOC(=O)CCc1c(C)c2ccc(O)cc2oc1=O | -11%
O=C1NCCOC(=O)[C@H](Cc2ccc(F)cc2)CC/C=C/C[C@H]1CC(=O)N(CCO)Cc1ccccc1 | -23%
CSc1ccc(/C=C/C(=O)c2ccc(O)cc2)cc1 | ?
CC(C)[C@H](NC(=O)OC(C)(C)C)c1nnc(S(=O)(=O)Cc2c(F)cccc2Cl)o1 | ?
Cc1oc2c(c1C(=O)Nc1cccc(Br)c1)C1=NCCN1C=N2 | 5%
COc1ccc(NC(=O)CN(C)S(=O)(=O)c2ccc3[nH]c4c(c3c2)CCCC4)cc1Cl | 2%
COC(=O)c1ccc(Oc2nc3ccccc3n3c(C)nnc23)cc1 | -8%
COc1ccc(C(=O)Nc2ccccc2C(=O)NC(Cc2c[nH]c3ccccc23)C(=O)O)cc1 (stereo not drawn) | -9%
COC(=O)c1sc(=S)n(-c2cccc(Cl)c2)c1N | ?
CCN(CC)c1ccc(C=NCCNS(=O)(=O)c2ccc(C)cc2)cc1 | -5%
COC(=O)C(NC(C)=O)(Nc1ccccn1)C(F)(F)F (stereo not drawn) | 10%
CCCCN(C(=O)CN1CCOCC1)c1c(N)n(CC(C)C)c(=O)[nH]c1=O | ?
Cn1c(N)c(S(=O)(=O)NCc2ccc(Cl)cc2)c(=O)n(C)c1=O | -6%

Of the compounds above, two contain a furan ring, fused or not:
SMILES | VDR inh
O=C(NCC(c1ccco1)N1CCc2ccccc2C1)c1ccc(Cl)cc1 (stereo not drawn) | 11%
Cc1oc2c(c1C(=O)Nc1cccc(Br)c1)C1=NCCN1C=N2 | 5%

Other results.
SMILES | VDR inh
CC(/C=C/c1ccc(OCc2ccccc2)cc1)=N\O | -22%
O=C(/C=C/Nc1ccc(S(=O)(=O)Nc2ncccn2)cc1)c1ccc2ccccc2c1 | 5%
Cc1ccccc1NC1c2ccccc2C(=O)N1Cc1ccco1 (stereo not drawn) | -29%
COc1cc(C(=O)Oc2cccc(Nc3ncnc4ccccc34)c2)cc(OC)c1OC | 6%
CCN(C[C@H]1N[C@@](CC)(C(=O)OC)[C@H]2C(=O)N(C)C(=O)[C@@H]12)S(=O)(=O)c1ccc(C(F)(F)F)cc1 | 1%
COc1ccc2c(c1)C(=O)[C@H](OC(=O)NCc1ccc3c(c1)OCO3)[C@@H](c1ccc(OC)c(Br)c1)O2 | 3%
COc1cc2ncnc(NCc3cccs3)c2cc1OC | -23%
COC(=O)c1sccc1NC(=S)Nc1cc(C)ccc1OC | -3%
NC(=O)COc1ccc(NC(=O)c2ccccc2-c2ccccc2)cc1 | -7%
CCc1[nH]nc(C(=O)NC2CCCN(Cc3ccccc3F)C2)c1C (stereo not drawn) | -17%
Cn1ncc(Br)c1C(=O)N1CCc2ccccc21 | -18%
COc1ccc(-c2cc(-c3nnc(COC(=O)C4CC4)o3)c3ccccc3n2)cc1OC | -9%
Cc1[nH][nH]c(=O)c1[C@@H](c1ccccc1[N+](=O)[O-])C(C#N)C#N | ?
COCCCNC(=S)Nc1cc2oc3ccccc3c2cc1OC | 5%
COCCNC(=S)N1CCN(C(=O)C(=O)Nc2ccc(C(=O)OC)cc2)CC1 | 4%
O=c1c(-c2cc(-c3ccccc3)nc3c2COc2ccccc2-3)coc2ccc(Cl)cc12 | 7%
O=C(NCCc1csc(-c2ccc(F)cc2)n1)c1ccc(Br)o1 | 17%
Cc1nnc2ccc(-c3cccc(NC(=O)c4ccco4)c3)nn12 | -2%
O=C(Cc1csc(NC(=O)Nc2cccc(Cl)c2)n1)NCc1ccccn1 | -12%
Cc1ccc(C(=O)NCCCNC(=O)Cc2ccccc2)cn1 | 8%
COc1ccc2cc(C(=O)C3CCCN(C(=O)c4cnccn4)C3)ccc2c1 (stereo not drawn) | 14%
COC(=O)c1ccc(NC(=O)CC2C(=O)N(C)C(=S)N2Cc2ccc(S(N)(=O)=O)cc2)cc1 (stereo not drawn) | -13%
Cc1c(C(=O)Nc2ccccc2Cl)oc2ccc(S(=O)(=O)N3CCCCCC3)cc12 | -2%
Cc1sc2nc[nH]c(=O)c2c1-c1ccc(Cl)cc1 | -3%
O=C(CCc1nc(-c2ccccc2F)no1)NCCN1CCN(Cc2ccccc2)CC1 | 12%
Nn1c(SCC(=O)Nc2ccc(OC(F)F)cc2)nnc(Cc2ccccc2)c1=O | 3%
COc1ccc(NC(=O)c2ccc(NCC3CCCO3)c([N+](=O)[O-])c2)cc1 (stereo not drawn) | 8%
O=C(Cc1cn2ccsc2n1)Nc1ccccc1Oc1ccccc1 | 7%
Oc1ccccc1CNc1ccc(Br)cn1 | -7%
O=S(=O)(c1cccc2nsnc12)N1CCN(c2ncccn2)CC1 | 6%
CC(C)(C)NC(=O)c1ccc(COc2ccccc2Br)o1 | 17%
CC1=C(C/C=C(\C)CCC[C@H](C)CCC[C@H](C)CCCC(C)C)C(=O)c2ccccc2C1=O | -4%
CSc1ccc(-c2nc(O)c3cnccn23)cc1 | -13%
CCCCNc1c(-c2ccc(SC3CCCCC3)cc2)nc2ccccn12 | 1%
O=C(CNC(=O)COc1ccccc1)NCc1cccnc1 | 10%
O=C1NCC(c2ccccc2)C1C(=O)N/N=C\c1ccc(-c2cccc(Cl)c2Cl)o1 (stereo not drawn) | 1%
COC(=O)c1ccc(COC(=O)CNC(=O)CNC(=O)c2ccc(C)cc2)cc1 | 3%
CC(C)Cc1cc(C(=O)Nc2cc(C(F)(F)F)ccc2Cl)no1 | -1%
COc1ccc(C2Nc3ccccc3C(=O)N2c2ccccc2F)cc1COc1ccc(NC(C)=O)cc1 (stereo not drawn) | -7%
CCCNc1nc(N2CCCC2)nc(N2CCCC2)n1 | -21%
O=C(Cn1nc(-c2ccccc2)c2ccccc2c1=O)NCCN1CCOCC1 | 5%
COc1ccccc1CNC(=O)COC(=O)Cc1c[nH]c2ccccc12 | 1%
CCn1c(SCC(=O)Nc2ccc(OC)cc2OC)nc2nc3c(cc2c1=O)COC(C)(C)C3 | 11%
CCC12CCCN3CCC4(C(=C(C(=O)OC)C1)Nc1ccccc14)C32 (stereo not drawn) | -29%
COC(=O)C(C)Sc1snnc1-c1ccccc1 (stereo not drawn) | 6%
Cn1cnc2cc(NC(=O)c3ccc(Cl)cc3)ccc21 | -4%
COc1ccc(C(=O)COC(=O)c2ccccc2NS(=O)(=O)c2ccc(O)c([N+](=O)[O-])c2)cc1 | -22%
Cn1nc(C(=O)NCc2ccccc2Cl)c2c1-c1ccccc1SC2 | 13%
CCOCCCNC(=O)/C(C#N)=C/c1ccc(C(=O)OC)cc1 | -25%
CC(/C=C1\SC(=O)N(CC(=O)Nc2ccc(O)cc2)C1=O)=C\c1ccccc1 | -2%
CCc1ccccc1NC(=O)C(CC)Sc1nc2cc3c(cc2c(=O)n1Cc1ccco1)OCO3 (stereo not drawn) | 0%
CCn1c(SCC(=O)NCc2ccccc2)nnc1-c1ccccc1O | 4%
CCN(CC)CCn1cnc2c1c(=O)n(CCOC(=O)c1cc(OC)c(OC)c(OC)c1)c(=O)n2C | -1%
CCCCCCC1CCC(c2nc(-c3ccncc3)no2)CC1 (stereo not drawn) | -4%
CCN(CC)c1ccc(N=C2C(=O)Nc3ccccc32)cc1 | ?
Cc1ccc(NC(=O)COC(=O)c2ccc3c(c2)OCO3)c(C)c1 | -6%
O=C(CCNC(=O)Cn1ccc2ccccc2c1=O)NCCN1CCN(c2cccc(Cl)c2)CC1 | 2%
NC(=O)NC1NC(=O)NC1=O (stereo not drawn) | ?
CCOc1cc2c(C#N)c(N3CCCCC3)nc(N)c2c(N)n1 | -19%
CCOC(=O)C1CCN(C(=O)CCNC(=O)c2ccccc2OC)CC1 | -19%

More compounds
SMILES | VDR inh
C=CCOc1ccc(C2=NO[C@@H]3[C@@H]4C[C@@H]([C@H]5C(=O)N(C)C(=O)[C@@H]45)[C@H]23)cc1 | 20%
COc1cccc(CNC(=O)CSc2nnc(C)c3c(C)n(-c4ccccc4)nc23)c1OC | 12%
COc1ccc(OC)c(CN2CCN(C(=O)CNC(=O)c3ccccc3F)CC2)c1 | 6%
CCN(CC(=O)NCc1ccc(F)cc1)C(=O)COc1ccc(C)c(C)c1 | -8%
COc1ccc(Oc2cc(C)c3ccccc3n2)cc1 | -7%
COc1ccccc1N(C)S(=O)(=O)c1ccc(C(=O)OCC(=O)c2c[nH]c3ccccc23)cc1 | 5%
Cc1cnc(CN2CCc3c([nH]c4ccccc34)C2C2CCCCC2)[nH]1 (stereo not drawn) | -17%
O=C1c2ccccc2C(=O)N1CCCc1nc2ccccc2c(=O)n1Cc1ccco1 | 7%
Nc1ccc(S(=O)(=O)Nc2cc(Cl)c(N)c(Cl)c2)cc1 | -9%
COc1ccc(C2c3[nH]c4ccccc4c3CCN2C(=O)c2cc3ncccn3n2)c(F)c1 (stereo not drawn) | 16%
CCCCOC(=O)c1ccc(-c2ccc(/C=N/NC(=S)NCC)o2)cc1 | -4%
C[C@@]12CCC3[C@@](CCC4[C@@]3(C)CCC[C@@]4(C)C(=O)NC3CCCCC3)(CC1=O)C2 (stereo partly drawn) | -3%
CC(=O)c1cccc(N=Cc2c(O)ccc3ccccc23)c1 | -9%
CCc1ccc(NS(=O)(=O)c2c(C)nc3sc(CC)nn3c2=O)cc1 | -11%&-9%
CCC(=O)NNc1nc2c(C)c(C)ccc2s1 | -11%
CN(C)CCNc1ncnc2c1cnn2-c1cccc(Cl)c1 | 6%
CC1(C)NC(=O)N(CC(=O)OCC(=O)Nc2cc(S(=O)(=O)N3CCCCCC3)ccc2Cl)C1=O | 21%
COC(=O)c1ccc(CN2C(=O)c3ccccc3C2=O)cc1 | -15%
NS(=O)(=O)c1ccc(CCNC(=O)C2CCCN(S(=O)(=O)c3cccnc3)C2)cc1 (stereo not drawn) | -11%
Cc1nnc(Sc2nc3c(c(=O)n(C)c(=O)n3C)n2Cc2ccccc2Cl)s1 | 13%
C=CCNC(=O)C(=O)NCC(c1ccc2c(c1)OCO2)N1CCOCC1 (stereo not drawn) | -25%
O=C1CC(N2CCN(c3ccccn3)CC2)C(=O)N1c1ccc(F)cc1 (stereo not drawn) | 9%
COc1cc(/C=C2\C(=O)ON=C2c2ccccc2)cc(Cl)c1O | 45µM*
CCCNC(=O)c1cc(-c2ccc(OC)cc2)on1 | 12%
Cc1cc(C)nc(SCC(=O)NN=C2CCCC2)n1 | ?
COc1ccc(OC)c(NC(=S)N2CCN(Cc3ccccc3)CC2)c1 | 16%
COc1ccc(-c2cc(C(F)(F)F)nc(SCC(=O)NCCc3ccc(OC)c(OC)c3)n2)cc1 | -21%
Cc1ccc(-c2nnc(SCc3ccc(C#N)cc3)n2Cc2ccco2)cc1 | 8%
Cc1cccc(N(C)C(=O)CSc2nc3ncccc3o2)c1 | -12%
COc1c(/C=N/NC(=O)c2ccccc2O)c(CCN(C)C(C)=O)cc2c1OCO2 | 2%
CN(C)CCNC(=O)c1c(CSc2ccccc2)noc1C(=O)NCc1ccccc1 | -3%
Cc1ccc(CSc2nnc(-c3cccnc3)o2)cc1 | 4%
CCN(CC)CCOc1ccccc1OC | 0%&1%
O=C(NCCc1ccc(Cl)cc1)C1CCC(=O)N1C1CCCC1 (stereo not drawn) | 1%
CC(C)Cn1c(N)c(C(=O)CSc2nccn2C)c(=O)n(C)c1=O | -15%
Cc1cc(NC(=O)c2cccs2)ccc1NC(=O)Cc1ccccc1 | -12%
CCCSc1ccc([C@H]2N[C@@](C)(C(=O)OC)[C@H]3C(=O)N(CC)C(=O)[C@@H]23)cc1 | -18%

Ordered by SMILES length (high to low): 18 of the compounds above
SMILES | VDR inh
CCCSc1ccc([C@H]2N[C@@](C)(C(=O)OC)[C@H]3C(=O)N(CC)C(=O)[C@@H]23)cc1 | -18%
CC1(C)NC(=O)N(CC(=O)OCC(=O)Nc2cc(S(=O)(=O)N3CCCCCC3)ccc2Cl)C1=O | 21%
COc1ccc(-c2cc(C(F)(F)F)nc(SCC(=O)NCCc3ccc(OC)c(OC)c3)n2)cc1 | -21%
NS(=O)(=O)c1ccc(CCNC(=O)C2CCCN(S(=O)(=O)c3cccnc3)C2)cc1 (stereo not drawn) | -11%
COc1c(/C=N/NC(=O)c2ccccc2O)c(CCN(C)C(C)=O)cc2c1OCO2 | 2%
Cc1nnc(Sc2nc3c(c(=O)n(C)c(=O)n3C)n2Cc2ccccc2Cl)s1 | 13%
CN(C)CCNC(=O)c1c(CSc2ccccc2)noc1C(=O)NCc1ccccc1 | -3%
Cc1ccc(-c2nnc(SCc3ccc(C#N)cc3)n2Cc2ccco2)cc1 | 8%
CC(C)Cn1c(N)c(C(=O)CSc2nccn2C)c(=O)n(C)c1=O | -15%
COc1cc(/C=C2\C(=O)ON=C2c2ccccc2)cc(Cl)c1O | 45µM*
Cc1cc(NC(=O)c2cccs2)ccc1NC(=O)Cc1ccccc1 | -12%
O=C(NCCc1ccc(Cl)cc1)C1CCC(=O)N1C1CCCC1 (stereo not drawn) | 1%
COC(=O)c1ccc(CN2C(=O)c3ccccc3C2=O)cc1 | -15%
Cc1cccc(N(C)C(=O)CSc2nc3ncccc3o2)c1 | -12%
CN(C)CCNc1ncnc2c1cnn2-c1cccc(Cl)c1 | 6%
CCCNC(=O)c1cc(-c2ccc(OC)cc2)on1 | 12%
CCC(=O)NNc1nc2c(C)c(C)ccc2s1 | -11%
CCN(CC)CCOc1ccccc1OC | 0%&1%

Shown as a hit in VDR inh, among the entries above:
SMILES | VDR inh
COc1cc(/C=C2\C(=O)ON=C2c2ccccc2)cc(Cl)c1O | 45µM*

From PubChem BioAssay
